Mtb hypoxia rep – inhibitors of hypoxia-regulated fluorescent reporter in Mycobacterium tuberculosis. M. tuberculosis hypoxia-regulated fluorescent reporter, fluorescence. fluorescence inhibition, % (concentration not given with the values). hit rate 0.1% among 300,000;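 active = 35 to 45% if threefold the growth effect, above 45% if 1.5-fold the growth effect; inactive = the rest, general growth blockers included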;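 also: wells of about 50 µL received 100 nL stock; 0% = vehicle wells and 100% = reference inhibitor wells; whole bacteria with a GFP reporter of the hypoxia response; strong numbers were not always called active; many hits fall short of the cut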
PrP 5UTR inh – inhibition of PrP 5' UTR reporter expression; cell-based PrP 5' UTR mRNA reporter, plate reader; inhibition, % (concentration not given with the values); hit rate 0.35% among 340,000;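 active = every replicate at 50% or more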;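 also: 0 = median of the neutral control wells; tested in H4 reporter cells; numbers are from one replicate; inactives centre near -14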
BJeLR lethal – kills HRASV12-expressing BJeLR cells; BJeLR (HRASV12) viability, CellTiter-Glo ATP luminescence, 48 h; reference of the scale not given here; inhibition, % (concentration not given with the values); hit rate 0.17% among 300,000; AID 1554;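 active = replicate mean above 50%; inconclusive = above 50% but judged a plate artefact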;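 also: 50 nL library stock added to about 25 µL; numbers are from one replicate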
Bead autofluor – counter-screen for toxin protease inhibitors: compound fluorescence. fluorescence intensity (no concentration beside the values). hit rate 3.1% among 360,000. AID 624483. compound autofluorescence counterscreen, microsphere flow cytometry; hits give high values;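 active = at least 3 SD above the mean of all compounds, about 16000 in these data; inconclusive = too few beads counted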;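 also: 100 nL of 1 mM stock went into each well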
ugtP null kill – compounds lethal to S. aureus RN4220 ugtP deletion mutant | OD600 growth, 16 h; some inactives read as strong as hits | growth inhibition, % (test concentration not listed) | hit rate 0.54% among 330,000 | AID 1259309;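 active = z-score under -3 and OD600 up to 0.15 on both plates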;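 also: plate controls were untreated wells for no effect and antibiotic for full effect; wells of about 80 µL received 100 nL stock; the first replicate is given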
Sa RN4220 lethal – kills Staphylococcus aureus RN4220; S. aureus RN4220 growth, OD600, 16 h; inhibition, % (no concentration beside the values); hit rate 0.33% among 330,000;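 active = z-score of -3 or lower and OD600 up to 0.18 on both plates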;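 also: plate controls were untreated cells for no effect and reference antibiotic for full effect; stock transfer was 100 nL into about 80 µL; one replicate is shown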
Mtb hypoxia rep growth – further read-out of Mtb hypoxia rep, marked with its call; growth inhibition, %; measured here: M. tuberculosis growth (absorbance);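 0% = vehicle and 100% = reference antibiotic; read after six days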
Active calls of the source: *; ? = inconclusive; · = not tested or not shown.

SMILES	Mtb hypoxia rep	Mtb hypoxia rep growth	PrP 5UTR inh	BJeLR lethal	Bead autofluor	ugtP null kill	Sa RN4220 lethal
CCc1cc(=O)oc2cc(OCC(=O)NCCCn3ccnc3)c(Cl)cc12	-4	-13	-11	0	?	14	6.2
Cc1nn(-c2ccccc2)c2c1C(c1ccccc1)C(C#N)=C(N)O2 (configuration not stated)	·	·	0	3	2722	1	2.7
CCN(CC)c1nc2ccccc2n(Cc2cccc(OC)c2)c1=O	12	-4	-2	4	4462	91*	-5.8
C=CCNc1oc(-c2ccc(OCC)cc2)nc1C#N	2	7	-27	8	9044	7	-0.3
Cc1nn(C(C)(C)C)c(C)c1C=NOC(=O)Nc1ccc(Cl)cc1	12	2	·	·	·	-35	8.5
C=CCNC(=O)CCCOc1cc(C)ccc1C	8	7	-25	4	11074	-4	5.9
COC(=O)C1=CN(c2ccc(F)cc2)C=C(C(=O)OC)C1c1cccc(Br)c1	-1	7	-2	15	5914	2	-4.8
COc1ccc(/C=C/C(=O)Nc2ccc3nc4n(c(=O)c3c2)CCCC4)cc1OC	1	11	-2	1	4433	6	6.1
COCCN(C(=O)c1csnn1)C(C(=O)NC1CCCCC1)c1cccs1 (configuration not stated)	7	5	-29	15	4182	-3	4.7
O=C(CN1C(=O)NC2(CCCC2)C1=O)NCc1ccco1	14	0	-15	·	4160	-3	5.2
O=C(CN1C(=O)C2CC=CCC2C1=O)NCc1cccs1 (configuration not stated)	7	-5	-25	-9	4592	10	4.3
COc1cccc(NC(=O)Nc2cc(C)on2)c1	-4	7	-2	-4	3922	-2	1.3
CCC(CC)C(=O)Nc1ccc(C(=O)c2ccccc2)cc1	10	15	-46	0	2146	6	3.5
CSc1nc(O)c(Nc2ccccc2)c(=O)[nH]1	16	8	-34	·	3461	6	-0.1
Cc1ccc2nc(SCc3nnc(-c4ccccc4Br)o3)[nH]c2c1	5	2	-19	-3	2935	2	-1.4
Cc1ccc(C)c(Cn2c(=O)n(-c3ccc(CC(=O)NCc4ccco4)cc3)c(=O)c3sccc32)c1	25	25	-39	2	5548	11	0.9
COc1cccc(N2CCN(CC(=O)NC(C)c3ccccc3)CC2)c1 (configuration not stated)	11	-1	-11	1	2869	3	0.4
Cc1ccc(OCC(=O)O)c(O)c1	17	12	-17	·	3480	4	3.2
COc1cc(CC(=O)N(CC(C)C)C2CCS(=O)(=O)C2)cc(OC)c1OC (configuration not stated)	12	8	-10	·	3975	2	2.6
O=C(NNc1nc2ccccc2o1)c1ccccc1	12	15	·	4	4170	6	4.2
O=S(=O)(Nc1ccc(-n2cnnn2)cc1)c1ccccc1F	6	-6	-7	·	·	7	1.7
CC(C)CCN1CCN(Cc2cc3ccccc3[nH]2)CC1CCO (configuration not stated)	5	8	-10	-1	4503	0	5.6
CCCCn1c(N)c(N(CCOC)C(=O)c2cc(-c3ccc(OC)c(OC)c3)nc3ccccc23)c(=O)[nH]c1=O	15	8	-20	-3	7544	5	4.2
COc1cc(/C=C/C(=O)O)cc(OC)c1OC	·	·	-15	8	5843	·	·

Structural class: those above with a halogen.
SMILES	Mtb hypoxia rep	Mtb hypoxia rep growth	PrP 5UTR inh	BJeLR lethal	Bead autofluor	ugtP null kill	Sa RN4220 lethal
CCc1cc(=O)oc2cc(OCC(=O)NCCCn3ccnc3)c(Cl)cc12	-4	-13	-11	0	?	14	6.2
Cc1nn(C(C)(C)C)c(C)c1C=NOC(=O)Nc1ccc(Cl)cc1	12	2	·	·	·	-35	8.5
COC(=O)C1=CN(c2ccc(F)cc2)C=C(C(=O)OC)C1c1cccc(Br)c1	-1	7	-2	15	5914	2	-4.8
Cc1ccc2nc(SCc3nnc(-c4ccccc4Br)o3)[nH]c2c1	5	2	-19	-3	2935	2	-1.4
O=S(=O)(Nc1ccc(-n2cnnn2)cc1)c1ccccc1F	6	-6	-7	·	·	7	1.7

The list goes on:
SMILES	Mtb hypoxia rep	Mtb hypoxia rep growth	PrP 5UTR inh	BJeLR lethal	Bead autofluor	ugtP null kill	Sa RN4220 lethal
CCN1C(=O)[C@@H]2[C@@H](c3ccc(-c4ccc(C(C)=O)cc4)cc3)N3CCC[C@@]3(C(=O)OC)[C@@H]2C1=O	·	·	-17	1	4096	·	·
COc1ccc(NCc2nnc(SCC(=O)c3ccc(C)cc3)o2)cc1	4	1	-21	-3	4313	-7	2.2
COc1ccc(C2CC(=O)c3c(C)nc(N4CCN(c5ccccc5)CC4)nc3C2)cc1 (configuration not stated)	1	1	-29	-6	8939	-2	-3.8
COCC(C)NC(=O)/C=C/c1ccc(OC)cc1 (configuration not stated)	-2	1	-22	-3	2589	3	2.5
CCOc1ccccc1N1CC(C(=O)N(CC)C2CCS(=O)(=O)C2)CC1=O (configuration not stated)	-5	0	2	·	8341	3	4.5
Cn1nccc1C(=O)NCCN1C(=O)OC(C)(C)C1(C)O (configuration not stated)	4	16	-32	-4	9334	10	6.4
COc1ccc(-c2nn(-c3ccccc3)cc2CNC(C)Cn2cncn2)c(F)c1 (configuration not stated)	9	20	-28	-2	4101	5	9.8
CCCNC(=O)c1ccccc1NC(=O)c1ccccc1N(C)S(=O)(=O)c1ccc(C)cc1	3	7	-14	6	12100	5	-18
COc1ccc(/C=N\NC(=O)c2cc(O)c(O)c(O)c2)cc1COc1ccc(C(=O)OCC(C)C)cc1	·	·	0	3	3524	·	·
Nc1nnnn1-c1cccc([N+](=O)[O-])c1	6	2	-7	·	3419	3	1.7
N#C/C(=C(/O)CSc1nnc(Cc2cccs2)n1C1CCCCC1)c1nc2ccccc2[nH]1	·	·	-12	-12	3542	·	·
CS/C(=C/[N+](=O)[O-])Nc1cccc2c1C(C)CC2(C)C (configuration not stated)	6	1	-39	1	2561	2	11

By substructure, those above containing a furan ring, fused or not (2)
SMILES	Mtb hypoxia rep	Mtb hypoxia rep growth	PrP 5UTR inh	BJeLR lethal	Bead autofluor	ugtP null kill	Sa RN4220 lethal
O=C(CN1C(=O)NC2(CCCC2)C1=O)NCc1ccco1	14	0	-15	·	4160	-3	5.2
Cc1ccc(C)c(Cn2c(=O)n(-c3ccc(CC(=O)NCc4ccco4)cc3)c(=O)c3sccc32)c1	25	25	-39	2	5548	11	0.9

(cont.)
SMILES	Mtb hypoxia rep	Mtb hypoxia rep growth	PrP 5UTR inh	BJeLR lethal	Bead autofluor	ugtP null kill	Sa RN4220 lethal
COc1cc(C=CC(=O)OCC(=O)NC(=O)NC(C)C)cc(OC)c1OC	-1	11	·	·	·	-6	1.3
N#CC1=C(N)Oc2c(oc(CO)cc2=O)C1c1ccccc1[N+](=O)[O-] (configuration not stated)	10	5	·	-4	3688	14	1.5
Cc1ccc(NC(=O)c2ccc3c(c2)N(CC(=O)NC(C)C)C(=O)C(C)(C)O3)cc1	4	8	-1	0	3719	12	0.2
COc1ccc(/C=N/NC(=O)c2sccc2OCc2ccc(F)cc2)cc1OC	·	·	-32	5	2915	·	·
CC(C)(C)OC(=O)NCCCC[C@H](NC(=O)c1nc[nH]c1C(=O)N[C@@H](CCCCNC(=O)OC(C)(C)C)C(=O)OC(C)(C)C)C(=O)OC(C)(C)C	·	·	-10	1	3739	·	·
Cc1ccc(S(=O)(=O)N2C[C@@H]3[C@H]4CC[C@H](C4)[C@@H]3[C@@H](C)[C@H]2c2ccco2)cc1	3	7	-3	·	3605	32	4.9
CC(C)[C@@H](CO)NC(=O)c1ccc2c3n(nc2c1)-c1ccccc1CO3	·	·	-20	26	2903	·	·
CCN(CC(=O)NC(C)(C)C)C(=O)c1ccc2c(c1)S(=O)(=O)c1ccccc1C2=O	8	10	-22	-1	3211	8	4.3
COCc1cc(C)nc(SC)c1C#N	8	0	-29	-5	3456	13	5.6
Cc1cc(NC(=O)c2ccc([N+](=O)[O-])cc2)n(CCC#N)n1	9	4	-16	-2	3835	7	5.2
COc1ccc(S(=O)(=O)N2CCOC23CCN(C(=O)c2ccccc2OC)CC3)cc1	5	-2	-8	1	?	9	2.1
Cc1ccc(N2C(=O)c3ccc(C(=O)NCCN4CCOCC4)cc3C2=O)cc1	·	·	-5	-2	4858	-3	-2.0
Cc1ccccc1-c1cn(-c2ccccc2)c(=S)[nH]1	7	-5	-30	-8	5922	5	3.9
O=C(Nc1ccc(F)cc1)c1cccc(N2C(=O)C3C4C=CC(C4)C3C2=O)c1 (configuration not stated)	13	7	-28	1	6904	1	1.6
Cc1[nH]c2ccccc2c1/C=N/Nc1ccccc1[N+](=O)[O-]	·	·	-18	-13	2071	·	·
Cc1ccc(C(=O)Nc2nc3ccccc3s2)s1	1	2	-123	16	22825*	-5	-3.5
C=C(C)Cn1c(CCCNC(=O)CC)nc2ccccc21	1	0	-36	0	9007	7	5.1
CC(O)CNc1nc2c(c(=O)n(Cc3ccc(Br)cc3)c(=O)n2C)n1C (configuration not stated)	3	-4	5	-2	3168	7	5.1
COc1ccc(-n2c(Cc3cccn3C)nnc2SCC(=O)Nc2cccc(OC)c2)cc1	·	·	-1	2	6142	6	3.5
CCC(Sc1nc2ccccc2c(=O)[nH]1)C(=O)Nc1ccc(C(C)=O)cc1 (configuration not stated)	5	7	-22	-1	3586	-4	6.7
Cc1cc(C)nc(NS(=O)(=O)c2ccc(NC(=O)CN3C(=O)S/C(=C\c4ccccc4)C3=O)cc2)n1	4	7	-33	1	2078	-8	2.8
COc1ccc(OC)c(NC(=O)c2c(NC(=O)c3ccco3)sc3c2CCC3)c1	-9	-4	·	-23	·	-2	5.4
CC(C)NC(=O)c1cccc(Br)c1	13	14	-18	-9	8715	-1	5.7
COc1cccc(OC)c1C(=O)Nc1ccc(Cc2ccncc2)cc1	-2	-1	-83	-5	2359	2	3.5
O=C(CCNC(=O)c1ccc(Cl)cc1)NCc1cccc(C(F)(F)F)c1	-5	7	-10	-6	?	11	3.8
CC(NC(=O)CCCOc1ccc(Cl)cc1)c1ccccc1 (configuration not stated)	-1	1	-12	1	3168	3	2.5
CN(C)c1ccc(C(c2nnnn2CCOC(=O)Nc2ccc(Cl)cc2)N2CCOCC2)cc1 (configuration not stated)	·	·	-3	7	3670	-5	19
COc1ccccc1NC(=O)/C=C/C(=O)O	5	9	2	3	4187	6	-0.1
ClCc1nnc(-c2cc3c(s2)CCCC3)o1	16	19	-7	8	4713	3	15
Cc1ccc(C)c(S(=O)(=O)NN=Cc2cccnc2)c1	10	8	·	·	·	1	6.2
CN(c1ccccc1)S(=O)(=O)c1ccc(C(=O)NCc2ccccc2F)cc1	13	7	0	·	3141	2	2.2
Cc1ccc(Sc2ncccc2COC(=O)Nc2c(C)cccc2C)cc1	·	·	8	1	3513	-9	3.3
Cc1ccc(NC(=O)/C=C/c2ccc([N+](=O)[O-])s2)cc1	·	·	-45	59*	2161	·	·
O=C(CSc1ncn[nH]1)NCc1ccc(Cl)cc1	13	2	-5	-5	5868	1	2.7
Cc1cc(NC(=O)CCl)on1	13	16	-53	9	4406	-7	-0.3
Cc1nnc(SCC(=O)N(Cc2ccccc2)C(C)(C)C)[nH]c1=O	8	-1	-25	1	4150	9	4.6
O=[N+]([O-])c1ccccc1C=Nn1c(C2CCCCC2)n[nH]c1=S	13	8	·	·	·	-3	5.7
COc1ccccc1/C=C/C(=O)c1ccccc1	·	·	-44	-3	5189	·	·
Cc1cc(C)n(-c2nc(C(=O)O)cs2)n1	3	11	-13	-2	4418	1	0.2
C=CCOC(=O)C1C(=O)CC(C)(O)C(C(=O)OCC=C)C1c1ccc(N(C)C)cc1 (configuration not stated)	3	10	-27	3	4431	3	6.0
COc1cc(/C=C2/SC(=Nc3ccc(O)cc3)NC2=O)ccc1O	14	15	-72	36	3552	15	23
CCOc1cc(/C=N/NC(=O)c2ccc(CN3CCOCC3)cc2)ccc1OC	·	·	-7	-3	3507	·	·
COc1ccc2c3c(c(=O)oc2c1OCC(=O)O)CCCC3	6	1	-7	3	2562	3	3.2

Another view of some results above.
Second line of a record: Mtb hypoxia rep, Mtb hypoxia rep growth, PrP 5UTR inh, BJeLR lethal, Bead autofluor, ugtP null kill, Sa RN4220 lethal
- Cc1cc(C)n(-c2nc(C(=O)O)cs2)n1
 : 3, 11, -13, -2, 4418, 1, 0.2
- C=CCOC(=O)C1C(=O)CC(C)(O)C(C(=O)OCC=C)C1c1ccc(N(C)C)cc1 (configuration not stated)
 : 3, 10, -27, 3, 4431, 3, 6.0
- COc1cc(/C=C2/SC(=Nc3ccc(O)cc3)NC2=O)ccc1O
 : 14, 15, -72, 36, 3552, 15, 23

Screening results deposited in PubChem by several laboratories.
